# PINK1 modulator: changes PINK1 expression; PINK1 immunofluorescence, high-content cytometry, 24 h; Potency, µM (highest dose often 76.6 µM), for the others: at the highest dose activation (PINK1 increase), most hits filed as activators; 410,000 compounds, 0.2% hits; active = well fitted activation curve with a large enough effect; inconclusive = small, poorly fitted or top-dose-only effect; inactive = flat fitted curve, though single readings scatter; cell line not stated here;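 further: % of control where 0% means no effect; nearly all actives have a fitted effect of over 65% in size; a mitochondrial uncoupler was the plate control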
#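 Cells are seeded, rested 12 hours, then given compound at five concentrations or DMSO for 24 hours. After fixation, blocking and antibody staining, PINK1 amount and mitochondrial localization are scored; CCCP serves as control.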
# * hit, by the source's call; ? = inconclusive. Potency means the concentration at half of the fitted maximal effect. The list is partial; rates above refer to the full screens.
SMILES,PINK1 modulator
COc1ccc(C2=C(C)C(N3CCC(C(=O)Nc4ccc(F)cc4C)CC3)=NS2(=O)=O)cc1,-0.9%
Cn1ncc(C(=O)N2CCN(c3ccccc3F)CC2)c1C1CCN(C(=O)OC(C)(C)C)CC1,1.8%
Cc1nc(C)c(CCNS(=O)(=O)c2ccc(C)c(C)c2)s1,-1.0%
CCN(Cc1ccncc1)Cc1ccc2c(c1)CN(C(=O)c1cccc(-n3nc(C)cc3C)c1)CCO2,-0.2%
CCOC(=O)c1ccc2c(c1)N(Cc1ccc(F)cc1Cl)C(=O)c1ccccc1S2,0.8%
O=c1c(S(=O)(=O)c2ccccc2)cn(Cc2cccc(F)c2)c2cc(N3CCCC3)c(F)cc12,0.0%
Cc1ccc(CN2CCN(C3CCN(C(=O)Nc4ccccc4C(F)(F)F)CC3)C(=O)C2=O)cc1,7.0%
Cc1cc(NS(=O)(=O)c2ccc(NC(=O)COc3cc(C)c(Br)cc3C(C)C)cc2)no1,0.4%
CCc1cccc(-n2nnc(-c3nc(-c4ccc5c(c4)OCO5)no3)c2C)c1,-1.0%
O=C(Nc1nc2c(F)cccc2s1)c1ccc(S(=O)(=O)N2CCOCC2)cc1,-1.4%
COc1ccc(-n2cc(-c3ccccc3)c3c(Nc4ccc(OC)c(OC)c4)ncnc32)cc1,4.1%
COc1ccc(Nc2cc(C(=O)NCc3ccccc3)c3ccccc3n2)c(OC)c1,3.4%
CCOc1ccc(OCC)c(NC(=O)C2CCN(S(=O)(=O)c3c(C)noc3/C=C/c3ccccc3F)CC2)c1,0.5%
Cc1cccc(-n2c(C)cc(C(=O)C(=O)Nc3ccccc3F)c2C)c1C,1.7%
O=C(CC(=O)Nc1ccccc1F)Nc1ccc2nc3n(c(=O)c2c1)CCCCC3,0.7%
Cc1ccc(CSc2c(C)cnc3c2c(=O)n(C)c(=O)n3C)cc1,2.2%
COc1ccc(CNC(=O)c2ccc3c(c2)N(Cc2ccccc2)C(=O)c2ccccc2S3(=O)=O)cc1,1.0%
Cc1nn(-c2ccccc2)c2c1N(CC(=O)N1CCN(c3ccccc3F)CC1)C(=O)CS2,0.8%
Cc1ccc(C)c(CN2C[C@H](Sc3ccccn3)C[C@H]2C(=O)Nc2ccc3sc(C)nc3c2)c1,-0.1%
COc1ccc(OCc2ccc(-c3nc(C#N)c(NCc4ccccc4)o3)o2)cc1,-0.4%
COc1ccc(OC)c(-c2noc(N3CCN(c4cccc(C(F)(F)F)c4)CC3)n2)c1,1.4%
Nc1c(C(=O)c2ccccc2)sc(Nc2ccc(Cl)c(Cl)c2)c1C(=O)Nc1ccccc1,16µM*
CCOC(=O)c1c(C)[nH]c(C)c1S(=O)(=O)N(C)CC(=O)N1CCN(c2cccc(C)c2C)CC1,0.1%
COc1cc(OC)c(NC(=O)c2cc(C(C)=O)n3ccccc23)cc1Cl,0.1%
CCOc1ccc(C(=O)c2cn(Cc3ccc(Cl)cc3)c3cc(OC)c(OC)cc3c2=O)cc1,0.3%

# 2 records drawn at random from those above, as already listed:
SMILES,PINK1 modulator
COc1ccc(OC)c(-c2noc(N3CCN(c4cccc(C(F)(F)F)c4)CC3)n2)c1,1.4%
Cc1cc(NS(=O)(=O)c2ccc(NC(=O)COc3cc(C)c(Br)cc3C(C)C)cc2)no1,0.4%

# Later entries.
SMILES,PINK1 modulator
COc1cc(CN2CCOc3ccc(CN4CCN(CCO)CC4)cc3C2)ccc1F,-1.0%
O=C(O)c1ccc(NC(=O)c2ccc(Cl)c(S(=O)(=O)N3CCCCCC3)c2)cc1,1.5%
Cc1cccc(NC(=O)Cn2nc(-c3ccccc3)c3cnc4ccccc4c32)c1,1.6%
CCCN(CCC)C(=O)Cn1c(=O)n(-c2ccccc2)c(=O)c2c3c(sc21)CCCC3,1.6%
COc1ccc(Cc2nc3ccc(C(=O)NCc4cc(Br)ccc4OC)cc3o2)cc1,-0.3%
CCn1cc2nc(SCc3cc(C)ccc3C)n(Cc3ccc(Cl)cc3)c(=O)c2n1,6.8%
Cc1ccc(-c2nnc(Nc3cccc(O)c3)c3ccccc23)cc1S(=O)(=O)N1CCOCC1,3.3%
COc1ccc(C)cc1NC(=O)COCc1cc(-c2ccc(F)cc2)on1,0.3%
CC(C)CCNC(=O)CSCc1cnn(-c2ccccc2)c1-n1cccc1,-0.3%
Cc1nc2ccccc2c(=O)n1-c1ccc(NC(=O)c2cccc([N+](=O)[O-])c2)cc1,-0.2%
Cc1cn2c(=O)cc(COc3ccccc3NC(=O)c3ccc(Cl)cc3)nc2s1,0.1%
Cc1cc(N2CCC(C(=O)Nc3ccc(F)cc3F)CC2)n2nc(C)c(-c3ccc(Cl)cc3)c2n1,0.6%
CCc1ccc(CNc2ncc(-c3cccc(OC)c3)n2C)cc1,5.7%
Cc1cccc(Cn2cccc2CNS(=O)(=O)c2ccccc2F)c1,1.8%
COc1ccc(S(=O)(=O)N(CC(=O)Nc2cc(C)cc(C)c2)c2ccc(Cl)cc2)cc1,4.1%
Cc1cc(C(=O)N(Cc2cc3cc4c(cc3nc2N2CCOCC2)CCC4)CC2CCCO2)c(=O)[nH]c1C (stereo unspecified),0.4%
Cc1ccc(C)c(S(=O)(=O)c2nnn3c2nc(N2CCOCC2)c2sccc23)c1,-0.3%
Cc1cccc(NC(=O)CCCCCn2c(=O)[nH]c3ccsc3c2=O)c1,-0.4%
Cc1ccc(-c2cnc(NCc3c(F)cccc3Cl)n2C)cc1,4.6%
CC(=O)N1c2ccc(S(=O)(=O)N3CCN(c4ccc(C)cc4C)CC3)cc2CC1C (stereo unspecified),2.9%
Cc1ccc(C(=O)N2CCC(c3c[nH]c4ccccc34)(c3c[nH]c4ccccc34)CC2)cc1,-0.8%
Cc1cc(Cl)ccc1OCCSc1nnc(-c2cccs2)o1,1.4%
COc1cccc(NC(=O)c2oc3ccc(S(=O)(=O)N(C)C4CCCCC4)cc3c2C)c1,0.3%
CCOC(=O)COc1ccc(C2C(C(=O)OC)=C(C)NC3=C2C(=O)c2ccccc23)cc1Cl (stereo unspecified),-1.3%
CCOC(=O)C1CCN(c2nc3c(S(=O)(=O)c4ccc(Br)cc4)nnn3c3ccsc23)CC1,-0.1%

# Some of these compounds in order of number of heavy atoms, falling.
SMILES,PINK1 modulator
COc1cc(CN2CCOc3ccc(CN4CCN(CCO)CC4)cc3C2)ccc1F,-1.0%
Cc1ccc(C)c(S(=O)(=O)c2nnn3c2nc(N2CCOCC2)c2sccc23)c1,-0.3%
Cc1ccc(-c2cnc(NCc3c(F)cccc3Cl)n2C)cc1,4.6%

# The list continues.
SMILES,PINK1 modulator
Cc1cccc(NC(=O)c2ccc(N(Cc3ccccc3)S(C)(=O)=O)cc2)c1,2.0%
COc1ccc(-c2nc(CN3CCC(C(=O)NCc4ccccc4)CC3)c(C)o2)cc1OC,1.7%
CCc1nn(CC(=O)NCc2ccccc2Cl)c(=O)c2cc3ccccc3n12,1.2%
COc1ccc(CCN2C(=O)c3oc4cc(C)cc(C)c4c(=O)c3C2c2ccc(F)cc2)cc1OC (stereo unspecified),2.5%
CCCCN(CCCC)c1ncnc2c1cnn2-c1cccc(C)c1,5.5%
Cc1ncc2c(c1CNC(=O)c1ccc3c(c1)OCO3)CCN(C(=O)c1cccc(-n3cccn3)c1)C2,-0.8%
CC(C)OCCCNC(=O)c1c2c(nc3ccccc13)C(=O)N(C1CCCCC1)C2,-0.1%
CC(Oc1ccccc1)C(=O)Nc1ccc(C(=O)OCc2cc(=O)n3nc(C4CC4)sc3n2)cc1 (stereo unspecified),-2.6%
CC(C)OCCCNC(=O)CN1C(=O)c2cccnc2Sc2ccccc21,0.7%
CCc1ccccc1N1C(=O)N(Cc2cccc(Cl)c2)c2ccccc2S1(=O)=O,1.3%
CC(C)Cc1nn2c(=O)cc(COC(=O)c3cccc(NC(=O)c4ccccc4)c3)nc2s1,1.0%
Cc1ccccc1-c1noc(CSc2nc3ccccc3[nH]2)n1,3.4%
O=C(NCc1ccccc1)c1ccc2c(c1)N(Cc1ccccc1F)C(=O)c1ccccc1S2=O (stereo unspecified),1.0%
COc1ccc(-c2nc3sc(CCNC(=O)C(=O)Nc4ccc(C)c(F)c4)c(C)n3n2)cc1,-0.2%
CCCN1CCN(CCCNC(=O)c2ccc3c(c2)sc2nc(-c4ccc(OC)cc4)cn23)CC1,-0.5%
COc1ccc(N(C)C(=O)Cn2cc(S(=O)(=O)N3CCN(c4ccccc4F)CC3)c3ccccc3c2=O)c(OC)c1,1.0%
CC(C)Oc1cccc(C2CC(=O)Nc3cc4c(cc32)OCO4)c1 (stereo unspecified),7.9%
COc1ccc(N2CCN(C(c3ccccc3F)c3sc4nc(-c5ccco5)nn4c3O)CC2)cc1 (stereo unspecified),2.1%
O=[N+]([O-])c1ccc(Cl)c(S(=O)(=O)/N=C(/Sc2ccc(Br)cc2)c2ccccc2)c1,0.5%
CCNc1ccc(-c2nc(-c3ccco3)no2)cc1[N+](=O)[O-],11%
CCOC(=O)c1c(-c2ccccc2)oc2ccc(OCc3ccc(C)cc3)cc12,-0.7%
CC(=O)N1c2ccccc2C(=O)C1N1CCN(c2ccc(F)cc2)CC1 (stereo unspecified),1.0%
Cc1ccc2oc(C(=O)Nc3c(C(=O)Nc4cccc(Cl)c4)oc4ccccc34)cc(=O)c2c1,1.3%
CC(=O)N1CCc2c(sc3c2c(=O)n(CCc2ccccc2)c(=O)n3CC(=O)Nc2ccccc2F)C1,0.5%
Cc1ccc(-c2noc(-c3nnn(CC(=O)Nc4cc(Cl)ccc4C)c3N)n2)cc1,1.0%

# The list continues:
SMILES,PINK1 modulator
Cc1cccc(NC(=O)Cn2cc(C(=O)c3ccco3)c3ccccc32)c1C,1.4%
Cc1ccc(NC(=O)c2oc3ccc(S(=O)(=O)N4CCCCCC4)cc3c2C)c(C)c1,1.2%
CC(C)CCNC(=O)CN1C(=O)CCn2nc(-c3cn(C)c4ccccc34)cc21,1.5%
CC(C)C(=O)NCC1CCC2(CCN(Cc3ccc(-c4cccc(Cl)c4)o3)CC2)O1 (stereo unspecified),0.7%
CSc1ccccc1NC(=O)C1=CC(c2ccc3c(c2)OCO3)=NS(=O)(=O)N1C,-1.0%
COCCNC(=O)Nc1cc(C(=O)NCc2ccc(C(C)C)cc2)ccc1N1CCCC1,0.5%
O=C(NCc1ccccc1Cl)c1ccc(CS(=O)(=O)c2ccc(Br)cc2)o1,1.6%
COc1ccc(-c2cc3nccc(-c4cc(Cl)c(C)cc4O)n3n2)cc1,7.2%
O=C1CCSC2(C(=O)N(Cc3ccc(F)cc3)c3ccccc32)N1c1ccccc1 (stereo unspecified),-0.8%
C=Cc1ccc(Cn2c(=O)n(-c3ccc(C)cc3)c(=O)c3c2c2cc(OC)ccc2n3C)cc1,6.2%
CCOc1ccc(OCC)c(NS(=O)(=O)c2ccc3[nH]c(=O)ccc3c2)c1,-4.2%
COc1ccc(CCNC(=O)c2cc(Sc3cccc(Cl)c3)nc3ccccc23)cc1OC,3.2%
CC(C)OCCCN1C(=O)c2[nH]nc(-c3ccccc3O)c2C1c1ccc(OCc2ccccc2)cc1 (stereo unspecified),5.3%
O=C(NC1CCCC1)c1ccc2c(=O)n(Cc3ccccc3)c(SCc3ccccc3)nc2c1,-0.8%
COc1ccc(S(=O)(=O)NCC(c2ccc(N(C)C)cc2)N2CCOCC2)cc1 (stereo unspecified),1.3%
O=C(Cn1nc(Cc2cccnc2)c2ccccc2c1=O)Nc1ccc(F)c(Cl)c1,-0.2%
C/C(=C\c1ccco1)CN1CCOc2ccc(C(C)(O)COc3ccccc3)cc2C1 (stereo unspecified),-0.2%
O=C(NCCc1ccccc1)c1ccc(Cn2c(SCc3ccccc3)nc3cccnc32)cc1,12%
Cc1ccccc1Oc1nc2c(c(=O)n(C)c(=O)n2C)n1Cc1ccc(Br)cc1,0.5%
CC1CCC(NC(=O)C2(C)Cc3ccccc3C(=O)N2Cc2ccccc2Cl)CC1 (stereo unspecified),-0.7%
Cc1ccccc1CN1C(=O)c2ccccc2S(=O)c2ccc(C(=O)NC3CCC(C)CC3)cc21 (stereo unspecified),0.3%
Cc1cc(C)c(NC(=O)Cn2c(=O)oc3cc(S(=O)(=O)N4CCCCCC4)ccc32)c(C)c1,-0.3%
Cc1ccc(C(=O)c2cn(CC(=O)NCc3ccccc3)c3nc(C)ccc3c2=O)cc1,3.8%
COc1cccc(CNC(=O)c2ccc3c(c2)sc2nc(-c4cccc(OC)c4)cn23)c1,4.4%
COc1ccc(CCNC(=O)c2cc3c(=O)n4cccc(C)c4nc3n2C)cc1,0.2%

# Next section:
SMILES,PINK1 modulator
COc1ccc(N2CCN(C(=O)CCn3nc(C)c(S(=O)(=O)N4CCCC4)c3C)CC2)cc1,-1.1%
Cc1ccc2nc(-c3ccc(C)o3)c(Nc3ccccc3)n2c1,2.1%
Cc1ccc(NC(=O)CSc2nc3ccccc3nc2Cc2ccccc2)c(Cl)c1,?
COc1cc(C2CC(=O)N(CC(=O)Nc3ccccc3F)c3ccccc3S2)cc(OC)c1OC (stereo unspecified),-0.1%
Cc1ccc2sc(N3CCN(C(=O)CCS(=O)(=O)c4ccc(Cl)cc4)CC3)nc2c1C,0.9%
COc1ccc(N2CCN(C(=O)CCn3cnc4onc(-c5ccc(F)cc5)c4c3=O)CC2)cc1,1.9%
Cc1ccccc1CS(=O)(=O)c1ncc(Cl)c(C(=O)Nc2nnc(C(C)C)s2)n1,-0.5%
CCc1nnc2c(Nc3ccc(Br)c(C)c3)nc3ccccc3n12,1.6%

# A run of entries taken from the entries so far, as a working copy:
SMILES,PINK1 modulator
Cc1ccc2sc(N3CCN(C(=O)CCS(=O)(=O)c4ccc(Cl)cc4)CC3)nc2c1C,0.9%
COc1ccc(N2CCN(C(=O)CCn3cnc4onc(-c5ccc(F)cc5)c4c3=O)CC2)cc1,1.9%
Cc1ccccc1CS(=O)(=O)c1ncc(Cl)c(C(=O)Nc2nnc(C(C)C)s2)n1,-0.5%
CCc1nnc2c(Nc3ccc(Br)c(C)c3)nc3ccccc3n12,1.6%

# Screening results deposited in PubChem BioAssay by National Center for Advancing Translational Sciences (NCATS).
